Ba CapD inh: CapD enzyme inhibition | 140,000 tested, 0.23% active | purified CapD enzyme, fluorescence intensity read-out; stronger effect = lower value; some hits fall short of the stated cut | z-score (test concentration not listed) | AID 492967;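 active means z-score under -4 in either of two replicates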;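 further: stock transfer was 100 nL into about 40 µL; score is relative to mean and spread of the plate; one replicate is shown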
AID504770: growth inhibitors of E. coli YBA685 in a screen for V. cholerae RctB (chromosome II replication) inhibitors. 130,000 tested, 0.27% active. z-score (no concentration beside the values). E. coli YBA685 rctB-dependent plasmid, OD600 growth, 3 h; stronger effect = lower value;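 active means z-score under -2 on both plates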;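 further: wells of about 30 µL received 100 nL stock; score is relative to mean and SD of the test wells; the first replicate is given; strong numbers were not always called active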
* = called active by the depositor; · = not tested or not shown.

compound | Ba CapD inh | AID504770
CC1(C)CC(=O)C2=C(C1)OC1=C(C(=O)CC(C)(C)C1)C2c1ccccc1O | -0.4 | ·
COc1ccccc1/C=C1\CCC/C(=C\c2ccccc2OC)C1=O | -0.78 | ·
c1ccc(-c2nc(CSc3nnnn3-c3ccccc3)cs2)cc1 | 0.305 | -0.5
CCOC(=O)C1=NN(c2ccc(C)cc2)C2(S1)c1ccccc1C(c1ccc(Cl)cc1)=NN2c1ccccc1 (stereo not drawn) | -0.83 | ·
COc1ccc(CN=C(C#N)C2=C(O)c3ccccc3C2=O)cc1 | 0.255 | -0.65
CC1(C)CC(=O)C2=C(C1)Nc1nc(=S)[nH]c(N)c1C2c1ccncc1 (stereo not drawn) | · | 0.25
CS(=O)(=O)c1noc(-c2ccc(Cl)cc2)c1C#N | -0.06 | -0.7
CCOC(=O)c1c(C)oc2c1c1c(c3ccccc32)OCN(Cc2ccco2)C1 | · | -0.65
Cc1ccccc1NC(=O)Cn1c(C)cc(C)c(C#N)c1=O | · | 0.25
CCOC(=O)/C(C#N)=C/c1ccc(-c2cccs2)s1 | 0.225 | -0.95
COc1ccc(-c2cn3nc(N4CCC(C(=O)O)CC4)sc3n2)cc1 | -0.56 | -0.8
Cc1cc(-c2csc(CC#N)n2)c(C)n1Cc1ccc2c(c1)OCO2 | · | -1.15
CC1=C(C)CS(=Nc2ccc(Cl)cc2)N(S(=O)(=O)c2ccccc2)C1 (stereo not drawn) | -0.07 | ·
CCC(C)NC(=O)CSc1ncc(C#N)c(N)n1 (stereo not drawn) | · | 0.7
c1ccc(Cn2cc(CN3CCN(c4ccccc4)CC3)c3ccccc32)cc1 | -0.23 | 2.2
CC1CCC(NC(=O)CCC(=O)Nc2nc(-c3cc4ccccc4oc3=O)cs2)CC1 (stereo not drawn) | 80.4 | 0.15
O=C(NN1C(=O)c2ccc([N+](=O)[O-])c3c([N+](=O)[O-])ccc(c23)C1=O)c1cccc([N+](=O)[O-])c1 | -0.45 | ·
CN(C)c1ccc(NC(=O)CSc2nc3ccccc3nc2Cc2cccc([N+](=O)[O-])c2)cc1 | 0.265 | ·
Cc1cc(C)c2c(=O)n(CC(=O)Nc3ccc(Cl)cc3)sc2n1 | -0.735 | -0.8
COc1cccc(-c2cc(=O)c3ccc(O)cc3o2)c1 | -1.14 | 0.5
O=C(CSc1nc2cc(C(=O)NCC3CCCO3)ccc2c(=O)n1CC1CCCO1)NC1CCCC1 (stereo not drawn) | 3.73 | ·
CN(C)CCn1c2c(c(SCC(=O)Nc3ccccc3)nc1=O)CCCC2 | · | -1.05
Nc1nc2ccc(N3CCOCC3)cc2s1 | -0.035 | -0.45
CC1CC(C)CN(C(=O)COC(=O)c2ccc(C#N)cc2)C1 (stereo not drawn) | · | 0.15
O=C(NC1CC1)c1ccccc1I | 0.275 | 0.3
COc1ccc(CCn2c(SCC(=O)NC3CCCCC3)nc3ccsc3c2=O)cc1OC | -0.06 | 1.85
CC(C)(C)S(=O)(=O)c1cnc(-c2ccc(Cl)cc2)nc1N | 0.49 | 0.25
Oc1c(N=Nc2ccccc2Cl)c2ccccc2n1CN1CCOCC1 | -0.025 | ·
NC(=O)CCNc1cc(C(F)(F)F)cc(C(F)(F)F)c1 | 5.21 | 1.8
CCCCc1c(C(=O)O)cccc1C(=O)O | · | 0.85
O=C(O)/C=C/c1ccc2c(c1)OCO2 | 5.15 | 1.15
O=c1c2cn[nH]c2[nH]c(=S)n1-c1ccccc1F | 0.345 | ·
CCOC(=O)COc1c(/C=C2\SC(=S)N(Cc3ccco3)C2=O)cccc1OC | -0.305 | 1.8
CCC(C)(C)c1ccc(S(=O)(=O)NC2CCCC2OCc2ccccc2)cc1 (stereo not drawn) | 0 | ·
CCOc1ccc(CCNC(=O)C2CCN(c3nc(-c4ccc(OC)cc4)no3)CC2)cc1 | -0.405 | 0.95
CCc1ccccc1-n1c(SCC(=O)N2CCCC2)nc2[nH]ncc2c1=O | 0.045 | -0.45
Cc1ccccc1NC(=O)c1ccc2nc(N3CCC(C)CC3)sc2c1 | 1.81 | -0.6
Cn1nc(CC(=O)NCC2COc3ccccc3O2)c2ccccc2c1=O (stereo not drawn) | -0.815 | ·
COc1ccc(-c2cnc3cc(C)nn3c2N)cc1 | 0.48 | 1.2
O=C(O)C(Cc1ccccc1)NS(=O)(=O)c1ccccc1 (stereo not drawn) | · | -0.65
Cc1noc(C)c1COC(=O)c1ccccc1NC(=O)c1ccco1 | · | 1.5
CCOC(=O)CN1C(=O)/C(=C\c2ccc(OC)c(Br)c2)Sc2ccccc21 | 0.75 | 1.3
c1cncc(Nc2nnc(-c3cccc4ccccc34)o2)c1 | 9.34 | -0.25
CCOc1ccc([C@H]2[C@H](C(=O)C34CC5CC(CC(C5)C3)C4)N3C=Cc4ccccc4[C@H]3C2(C#N)C#N)cc1 | 2.06 | ·
CCc1ccccc1NC(=O)C1COc2ccccc2O1 (stereo not drawn) | -0.08 | ·
O=C(/C=C/c1ccc(OCc2ccc(Cl)cc2Cl)cc1)N1CCOCC1 | 0.6 | ·
CC1CN(c2ccc3nnc(-c4ccc(C(F)(F)F)cc4)n3n2)CC(C)O1 (stereo not drawn) | 0.205 | -0.45
COc1ccc(N(Cc2ccccc2)C(=O)c2ccc(Cl)nc2)cc1 | 0.045 | ·
Cc1ccc(-c2cn3c(n2)sc2cc(C(=O)NC(C)C)ccc23)cc1 | 7.77 | 1.15
CC(=O)N(c1ccccc1)c1cccc(C(F)(F)F)c1 | -0.035 | -0.75

Next part
compound | Ba CapD inh | AID504770
O=C(O)c1ccc(-n2cc(-c3ccc(Cl)cc3)cn2)cc1 | -0.275 | ·
O=c1[nH]cc(C(F)(F)F)c(=O)[nH]1 | -0.395 | -0.8
Cc1[nH]c2ccccc2c(=O)c1CO | · | -0.3
CC(=O)N1N=C(c2cccc(C)c2)OC1c1ccccc1C (stereo not drawn) | 1.55 | 0.5
COc1ccc(CNC(=O)CC2(CC(=O)O)CCCCC2)cc1 | -0.205 | -0.05
CC(C)(C)C(=O)Nc1nnc(-c2ccccc2)o1 | 0.04 | 0.2
Cc1cccc(NC(=O)CCC2=NS(=O)(=O)c3cc(Br)cnc3N2)c1 | 0.57 | 0
C/C(=N\NC(=O)C1CC1)c1ccc(C(C)(C)C)cc1 | · | -1.65
COC(=O)Nc1nc2ccc(C(=O)c3ccccc3C(=O)OC(C)C)cc2[nH]1 | · | -1
CCOC(=O)N1CCC(Nc2ncnc3c2c(-c2ccccc2)cn3-c2cccc(Cl)c2)CC1 | 0.325 | ·
CCOC(=O)c1sc2nc(SCC(=O)Nc3ccc(OCC)cc3)n(N)c(=O)c2c1C | 0.245 | -0.85
O=C(CCOc1ccccc1)Nc1nccs1 | · | -0.65
Oc1ccccc1OCc1nc2ccccc2s1 | 0.51 | 0
Clc1cc(Cl)cc(-c2nnnn2Cc2ccccc2)c1 | -0.335 | -1.15
CCCSc1nnc(CN2CCOCC2)n1C | · | -0.25
NC(=O)c1cccnc1Oc1ccc(Cl)cc1Cl | -0.345 | ·
O=C(Nc1ccc(Oc2ccc3ccccc3c2Br)c(Cl)c1)c1cc(Br)cc(Br)c1O | 4.12 | ·
O=C(NCC1COc2ccccc2O1)c1ccc(=O)[nH]c1 (stereo not drawn) | · | 0.25
N#CCn1c(COC(=O)CN2C(=O)C3CC=CCC3C2=O)nc2ccccc2c1=O (stereo not drawn) | · | -0.2
O=C1c2ccccc2C(=O)N1CCCC(=O)n1ccc2ccccc21 | -0.405 | -0.55
CC1(C)Nc2ccccc2C(=O)N1c1ccccc1 | · | 0.75
CCC(Sc1nc2n[nH]c(C)c2c(=N)n1-c1ccc(OC)cc1)C(=O)Nc1ccccc1OC (stereo not drawn) | -0.175 | ·
CCOC(=O)c1c(C)[nH]c(C)c1S(=O)(=O)NCc1ccccc1C | -0.195 | 0.05
CSc1nc2ccc(NC(=O)c3ccc(Cl)s3)cc2s1 | 0.05 | -0.3
CCOC(=O)c1sc(SCCS(=O)(=O)c2ccccc2)c2c1CC(C)(C)CC2=O | -0.405 | ·

Sorted by heavy-atom count (lowest first): 4 of the compounds above.
compound | Ba CapD inh | AID504770
Cc1[nH]c2ccccc2c(=O)c1CO | · | -0.3
O=C(NCC1COc2ccccc2O1)c1ccc(=O)[nH]c1 (stereo not drawn) | · | 0.25
CCOC(=O)c1sc(SCCS(=O)(=O)c2ccccc2)c2c1CC(C)(C)CC2=O | -0.405 | ·
N#CCn1c(COC(=O)CN2C(=O)C3CC=CCC3C2=O)nc2ccccc2c1=O (stereo not drawn) | · | -0.2

4 entries from above, with two lines to a compound:
Values in the order: Ba CapD inh, AID504770
CC(C)(C)C(=O)Nc1nnc(-c2ccccc2)o1
  0.04, 0.2
CCOC(=O)N1CCC(Nc2ncnc3c2c(-c2ccccc2)cn3-c2cccc(Cl)c2)CC1
  0.325, ·
NC(=O)c1cccnc1Oc1ccc(Cl)cc1Cl
  -0.345, ·
CCCSc1nnc(CN2CCOCC2)n1C
  ·, -0.25

Next entries:
compound | Ba CapD inh | AID504770
O=C1COCC(=O)N1c1ccc2c(c1)OCO2 | -0.49 | -0.5
CC(=O)Oc1ccc(N(C(C)=O)S(=O)(=O)c2ccc(Cl)cc2)cc1 | 0.015 | -0.3
CC(C)Oc1ccccc1NC(=O)C1OC2OC3(CCCCC3)OC2C2OC3(CCCCC3)OC12 (stereo not drawn) | -0.565 | ·
CCOc1cccc(C(=O)N/N=C/c2ccc(Oc3ccccc3)cc2)c1 | 0.32 | ·
CCN(CC)c1nc(C)nc2sc(C(=O)Nc3c(F)cccc3F)c(C)c12 | 4.33 | ·
C[C@@H]1CCC2[C@](C)(CO)[C@@H](O)CC[C@]2(C)[C@@]12CCC(CO)(CCO)O2 (stereo partly drawn) | 0.02 | -0.65
CCN(Cc1ccncc1)C(=O)c1csc2ccccc12 | -0.465 | -0.85
Cn1cc(Cl)c(C(=O)N2CCc3ccccc3C2)n1 | -0.145 | -0.25
Cc1ccccc1OCC(O)CN(C)C (stereo not drawn) | · | -0.85
O=C(O)c1ccc2c(c1)C1C=CCC1C(c1ccc(Br)cc1)N2 (stereo not drawn) | -1.35 | -0.15
NC(=Nc1ccc(Cl)c(Cl)c1)c1ccccc1 | -0.55 | -0.7
Cc1ccc(C(C)C)c(OCc2nnc3c4cnn(Cc5ccccc5)c4ncn23)c1 | -1.06 | -0.8
O=S(=O)(NCCSCc1ccco1)c1cc(S(=O)(=O)c2ccccc2)cs1 | 0.24 | ·
Cc1cc(=O)n(CCc2ccccc2)c(O)c1C#N | 6.08 | -1.25
O=C(/C=C(\O)c1ccccc1)C(=O)Nc1cccc(F)c1 | -1.92 | -2.05
NNC(=O)c1nc(COc2ccccc2Cl)no1 | 0.415 | -1.25
CCOc1ccccc1N/C(SCc1ccc(C)cc1C)=C(/C#N)C(=O)NCc1cccs1 | 0.07 | ·
CCNC(=S)NN=C1CCC(C(C)(C)C)CC1 (stereo not drawn) | · | 1.8
CN1C=CC=C/C1=C1\SC(=S)N(C2CCCCC2)C1=O | · | -0.35
Cc1cc(C)nc(NS(=O)(=O)c2ccc(NC(=O)Cn3c(=O)oc4ccccc43)cc2)n1 | 1.86 | -0.15
CS(=O)(=O)c1ccc(-n2cc(-c3ccc(C(=O)NCCN4CCOCC4)cn3)cn2)cc1 | 4.6 | ·
O=C(O)CCn1c2ccccc2c2ccccc21 | 38 | -0.7
CC1=CC(=C2N=C(c3ccccc3)OC2=O)C=C(C)O1 | 0.365 | 0.85
Cc1nn2c(-c3ccccc3)csc2nc1=O | 9.82 | 1
Cc1ccc(NC(=O)C2OCCc3ccccc32)cc1 (stereo not drawn) | · | 0.25
CCCn1c(=O)n(Cc2ccc(C#N)cc2)c2ccccc21 | · | -0.55
Cc1c(N(C)S(C)(=O)=O)c(=O)n(-c2ccccc2)n1C | 0.665 | -0.75
O=C(O)CCCC(=O)Nc1ccccc1-n1ccnc1 | -0.1 | 0.05
CS(=O)(=O)c1ccc(CC(=O)NCCc2ccccc2)cc1 | -0.7 | ·
O=C(/C=C/c1ccco1)Nc1sc2c(c1C(=O)O)CCCCC2 | -2.36 | -0.9
O=c1c([N+](=O)[O-])c(N2CCN(c3ccccn3)CC2)c2ccccc2n1-c1ccccc1 | 1.38 | ·
O=c1c2cnn(-c3ccccc3)c2ncn1Cc1cccnc1 | · | 1.35
Cc1cccc(Cc2c(C)nc3c(C(=O)N4CCN(Cc5ccc6c(c5)OCO6)CC4)cnn3c2C)c1 | 8.07 | ·
COc1cccc(C2/C(=C(/O)c3ccc(Cl)cc3)C(=O)C(=O)N2c2ccc(OCC(=O)O)cc2)c1 (stereo not drawn) | -2 | -0.45
COc1ccc(Cl)cc1NC(=O)c1cc2cccc(OC)c2oc1=Nc1ccc(C(=O)O)cc1 | -0.71 | ·
COc1cc(/C=C2/C(=N)N3C=CSC3=NC2=O)cc(OC)c1OCCOc1ccc(C)c(C)c1 | -0.245 | 0.1
Cc1ccccc1CS(=O)(=O)Cc1ccc(C(=O)NC(C)c2ccccc2)o1 (stereo not drawn) | -1.17 | -0.85
O=C(CCN1C(=O)c2ccccc2Sc2ncccc21)NCCc1ccc(Cl)cc1 | -0.795 | -0.35
CN(Cc1nccn1C)C(=O)c1ccc2c(c1)S(=O)(=O)c1ccccc1C2=O | · | 0.05
Cc1cc(C)n(C(=O)c2ccc(Cl)cc2)n1 | 0.265 | -0.7
O=C(NNC(=O)c1ccccc1-n1cccc1)OCC1CCCN1c1ccc([N+](=O)[O-])cc1 (stereo not drawn) | -1.69 | ·
COc1cccc(/C=N/NC(=O)Cc2cccs2)c1 | 1.13 | -0.9
CCOC(=O)c1csc(NC(=O)/C=C/c2cccs2)n1 | 0.25 | -0.35

Screening data deposited in PubChem by ICCB-Longwood Screening Facility, Harvard Medical School.

Some of the compounds tested. The share of hits here may be higher or lower than overall.
